CapD inh – inhibitors of Bacillus anthracis CapD enzyme. 140,000 tested, 0.23% active. purified CapD enzyme, fluorescence intensity read-out; hits give low values; some hits fall short of the stated cut. AID 492967. z-score (no concentration beside the values);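 active means z-score under -4 in either of two replicates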;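 further: stock transfer was 100 nL into about 40 µL; score is relative to mean and spread of the plate; one replicate is shown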
AID504770 – E. coli YBA685 growth inhibition, screen for V. cholerae RctB inhibitors. z-score (no concentration beside the values). AID 504770. 130,000 tested, 0.27% active. E. coli YBA685 rctB-dependent plasmid, OD600 growth, 3 h; hits give low values;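 active means z-score under -2 on both plates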;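 further: wells of about 30 µL received 100 nL stock; score is relative to mean and SD of the test wells; the first replicate is given; strong numbers were not always called active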
Starred values were filed as active, the others as inactive; / = no result given.

The line under a structure holds: CapD inh	AID504770
O=C1c2cccnc2C(=O)N1Cc1ccc(S(=O)(=O)N2CCc3ccccc32)cc1
  -0.31	-0.75
COc1ccccc1N1CCN(C(=O)c2sc3nc(-c4ccc(F)cc4)cn3c2C)CC1
  -0.215	0
CSc1ccc(Cl)c(C(=O)OCC(=O)NCc2ccccc2)c1
  3.82	0
COc1ccccc1NC(=O)c1ccc(C(C)(C)C)cc1
  -0.425	0.85
CC1C(=O)NN=C1C(=O)N/N=C/c1ccc(OC(=O)c2ccco2)cc1 (stereo not given)
  /	-0.95
CCOC(=O)c1ccoc1CN1CCN(C/C=C/c2ccccc2)CC1
  /	2.05
CCCn1c(NC(=O)c2ccccc2)nc2ccccc21
  /	0.1
CCOCCOC(=O)C1=C(C)NC2=C(C(=O)CC(c3ccccc3)C2)C1c1ccccc1Br (stereo not given)
  13.7	/
CC(C)Sc1nnnn1-c1ccccc1
  -1.12	1.1
CCc1ccc(Nc2nnc(SCC(=O)NC3(C#N)CCCC3)s2)cc1
  /	-0.25
C/C(=N\NC1=NCCN1Cc1ccccc1)c1ccc(Cl)cc1
  -0.255	/
CCn1c2ccccc2c2cc(C3C4CCCC=C4C(C#N)=C(N)C3(C#N)C#N)ccc21 (stereo not given)
  1.08	/
CCCN(CCC)C(=O)CSc1ncccc1C(=O)O
  0.795	-0.2
O=C(NCCc1ccc(Cl)cc1)c1ccc(CS(=O)c2ccc(Cl)cc2)o1 (stereo not given)
  0.21	-0.5
COC(=O)c1cc2ccccc2nc1-c1ccc(F)cc1
  29.7	-0.6
O=C1C2C3c4ccccc4C(c4ccccc43)C2C(=O)N1c1cccc(Oc2ccccc2)c1 (stereo not given)
  0.055	/
NC1=NC(=O)/C(=C/c2ccc(-c3cc([N+](=O)[O-])ccc3Cl)o2)S1
  -0.925	/
N#C/C(N)=C(\C#N)N=Cc1ccc(C(F)(F)F)cc1
  -2.22	-0.45
NC(=NCCc1ccccc1)Nc1nc2ccccc2[nH]1
  0.365	-0.35
COc1nc(N)nc(CC(=O)C2CC2)n1
  0.15	-0.1
CCOC(=O)CSc1nc2ccc(Br)cc2c2nc3ccccc3n12
  0.74	0.25
O=C(Cn1nnc(-c2ccccc2)n1)N1CCc2ccccc21
  /	-0.05
O=C1c2c(-c3ccc(Cl)cc3)csc2NC2CCCN12 (stereo not given)
  /	-0.65
O=C(Cn1c(-c2ccccc2Cl)nc2ccccc2c1=O)Nc1ccc(F)cc1F
  -0.71	/
COc1ccc(NC(=O)c2c(O)c3cccc4c3n(c2=O)CCC4)cc1OC
  0.43	/
Cc1ccc2c(CC(=O)OCc3nc(N)nc(Nc4ccccc4C)n3)coc2c1
  /	0.25
NS(=O)(=O)c1ccc(NC(=O)NCC2CCCC(CNC(=O)Nc3ccc(S(N)(=O)=O)cc3)C2)cc1 (stereo not given)
  /	0.05
[S-]c1n[n+]2cccnc2s1
  /	1
CCOC(=O)c1cc(NC(=O)c2ccccc2)c(=O)oc1C(F)(F)F
  0.585	0.2
COc1ccc(CCCc2nnc(SCC(=O)NN)o2)c(C)c1
  -0.705	1.25
N#C/C(=C\c1ccc2c(c1)OCO2)c1cccs1
  1.84	-0.4
CCSc1sccc1C1C(C#N)=C(N)N(c2cccnc2)C2=C1C(=O)CCC2 (stereo not given)
  -0.06	-0.35
COc1ccc(-n2cc(C#N)c(=O)n(Cc3ccccc3)c2=O)cc1
  1.71	-1.05
Cc1nn(CC(=O)N(Cc2ccccc2)C(C)C)c2ccccc12
  -1.38	-0.45
Cc1cc(O)c(C(=O)c2ccccc2)c(=O)o1
  -0.56	-1.5
CCOc1ccc2nc(SCC(=O)NCC3CCCO3)c(C#N)cc2c1 (stereo not given)
  /	-2.65
Cn1ccnc1C(=O)c1cc(Sc2nnnn2-c2ccccc2)nc2ccccc12
  /	-0.55
O=C(CCCCSc1nc2ccccc2[nH]1)Nc1cccc2ccccc12
  5.26	/
Cc1ccc(C(=O)OCC(=O)NC2CC2)cc1S(=O)(=O)N1CCOCC1
  /	0.1
COc1ccc(Cn2c(=O)oc3ccccc32)cc1
  -0.37	0.4
CC(C)NC(=O)CCc1nc2ccccc2c(=O)[nH]1
  /	-1.25
CCn1c(SCC2CCCCO2)nnc1-c1cccs1 (stereo not given)
  /	1
O=C(O)COc1ccccc1/C=N/NC(=O)c1ccccc1Oc1ccccc1
  0.095	/
Cc1[nH]n(-c2ccccc2)c(=O)c1C1=c2ccccc2=NC1=O
  0.035	0.2
Clc1ccccc1N1CCN(Cc2ccsc2)CC1
  -0.105	-0.5
CN=C(Nc1ccc(OC)cc1)c1ccccc1
  /	1.95
COc1ccc(Cl)cc1-c1nc(SCC(=O)N2C(C)CCCC2C)n[nH]1 (stereo not given)
  /	0.7
O=C(CNC(=O)c1ccc(C(F)(F)F)cc1)NC1CC1
  /	-0.2
COC(=O)c1ccc(NC(=O)c2cccc(C(F)(F)F)c2)cc1OC
  0.005	/
O=C(NCc1ccccc1)N(Cc1cccnc1)Cc1cc2cc3c(cc2[nH]c1=O)OCCO3
  /	-0.25
COC(=O)Cc1cc(=O)[nH]c(SCC2CCCCO2)n1 (stereo not given)
  /	-0.25
CCc1ccc(NC(=O)c2cccc(NC3=NC4CS(=O)(=O)CC4S3)c2)cc1 (stereo not given)
  0.145	0.65
O=C(CSc1nnc(Cc2ccccc2)n1Cc1ccccc1)N1CCCC1
  /	-1
CC1CCN(CCCNC(=O)Cc2c(C(=O)O)n(C)c3ccccc23)CC1
  1.3	0
C/C(=N\NC(=O)CNc1cccc(C(F)(F)F)c1)C1CC1
  /	0.95
COc1cc(OC)c(C2C(C(=O)N3CCOCC3)=C(C)NC3=C2C(=O)CC(C)(C)C3)cc1OC (stereo not given)
  -0.695	/
O=C(O)CCC(=O)Nc1ccc(Br)cn1
  0.42	-1.05
CCOC(=O)c1cnc(C)[nH]c1=O
  1.08	-0.2
CN1CCC(NC(=O)C2CCCO2)CC1 (stereo not given)
  0.535	0.65
Cc1ccc(C(=O)N/C(=C\c2sccc2C)C(=O)NCCCN2CCOCC2)cc1
  0.05	/

(more compounds)
The line under a structure holds: CapD inh	AID504770
O=C1CC2Sc3ccccc3N=C2N1Cc1ccccn1 (stereo not given)
  -0.315	-0.65
CCCCC1CCC(C(=O)OCC(=O)c2ccc(Br)cc2)CC1 (stereo not given)
  -0.275	1.05
C=CCNC(=O)c1cc(-c2cccs2)nc2ccccc12
  53.2	-0.65
O=C(c1cc(NS(=O)(=O)c2cccs2)cc(NS(=O)(=O)c2cccs2)c1)N1CCCCC1
  /	-1.9
O=C(CSc1nc2c(sc3ccccc32)c(=O)n1CCCN1CCCC1)NCc1ccccc1
  2.77	0.4
COc1ccc(Cl)cc1N=Cc1ccc2ncccc2c1
  -0.14	0.55
CCOc1ccc(N/C(SC)=C(/C#N)C(N)=O)cc1
  0.01	/
Cc1c(NC(=O)/C=C/c2ccc(Cl)cc2Cl)c(=O)n(-c2ccccc2)n1C
  -0.485	-0.35
O=C1c2ccccc2C(=O)C1c1cccc2ccccc12
  -1.2	/
CC12CCC(=O)N1C(C(=O)OCc1cc(=O)n3ccsc3n1)CS2 (stereo not given)
  /	0.05
CC1=CC(C)C(COC(=O)CN2CCCC2)C(C)C1 (stereo not given)
  0.035	-0.2
Cc1c(CC(=O)NN)sc2ccc(Cl)cc12
  0.265	0.75
Cn1cnnc1Sc1nc2c(c(=O)n(C)c(=O)n2C)n1Cc1ccc(F)cc1
  0.06	/
CC1COc2c(N3CCN(C)CC3)c(F)cc3c(=O)c(C(=O)OCc4ccccn4)cn1c23 (stereo not given)
  /	-4.55*
O=C1c2ccccc2S(=O)(=O)N1CC1CC1
  1.58	-1.1
COC(=O)C1=C(C)Nc2nnnn2C1c1ccc(N(C)C)cc1 (stereo not given)
  -1.02	/
Cc1csc(N(C(=O)CSc2nnc(C)n2-c2ccccc2)c2ccccc2)n1
  /	1.2
O=C(NC1CCCC1)c1cc(NS(=O)(=O)c2ccc(F)cc2)ccn1
  -0.235	0.45
COc1ccc(/C=C2/SC(=O)N(CNc3ccc(OC)c(Cl)c3)C2=O)cc1
  -1.46	/
Cc1ccc(-c2[nH]c3ccccc3c2SCCNC(=O)c2ccncc2)cc1
  -1.39	0.15
CCc1nn(CC(=O)NC2CCCC(C)C2C)c(=O)c2cc3sc(C)cc3n12 (stereo not given)
  -0.6	-0.85
O=C(OCc1ccc(F)cc1)C1=NN(c2ccccc2)C(=O)CC1
  /	0.1
CCOc1cccc2cc(C(=O)Nc3ccccc3F)c(=Nc3ccc(C(=O)O)cc3)oc12
  -0.19	/
O=C(NCC1CCCCC1)C1CCCN1C(=O)NC1CCCCC1 (stereo not given)
  /	-0.55
c1ccc(C2=Nc3ccccc3SC2c2nc3ccccc3[nH]2)cc1 (stereo not given)
  -4.06*	1.1
CC(CC(=O)O)CC(=O)N1CC(C)OC(C)C1 (stereo not given)
  -0.86	0.6
CC(C)C(NS(=O)(=O)c1ccc2c(c1)CCCC(=O)N2)C(=O)N1CCN(c2ccccc2)CC1 (stereo not given)
  -0.005	0.6
CN1CCc2c(sc3[nH]c(=S)n(CCc4ccccc4)c(=O)c23)C1
  3.75	/
CSc1ccccc1C(=O)OCC(=O)Nc1ccc(S(N)(=O)=O)cc1
  /	-0.6
N#Cc1ccc(OCC(F)(F)F)c(C#N)c1OCC(F)(F)F
  1.19	-0.35
Cc1noc(C)c1CSc1nc2cc(C(=O)O)ccc2c(=O)n1Cc1ccccc1
  /	-1.1
O=c1cc(-c2ccccc2)ss1
  11.4	-0.4
O=c1c2c3c(sc2nc2sc(-c4ccncc4)nn12)CCCC3
  /	0.4
Cc1ccc(S(=O)(=O)NC(=O)Nc2cc(S(C)(=O)=O)ccc2N2CCN(C)CC2)cc1
  1.12	/
Nc1ccc(S(=O)(=O)Nc2cc(F)ccc2F)cc1
  0.13	/
Nc1ccc2nc(-c3ccccc3-c3nc4ccc(N)cc4[nH]3)[nH]c2c1
  0.115	0.3
Cc1cccc(-n2cnc(C(=O)Nc3ccc(N4CCOCC4)cc3)c2)n1
  -0.615	/
CC(C)=C(/C(C)=N/O)c1ccc(N(C)C)cc1
  0.585	0.35
Cc1ccc(CNC(=O)c2cc(=O)[nH]c3ccccc23)n1C
  /	-0.8
O=C(O)c1ccccc1SCc1cc(=O)n2nc(-c3ccco3)sc2n1
  0.415	-0.7
CS(=O)(=O)N1CCCc2cc(C(=O)N3CCN(Cc4ccccc4)CC3)ccc21
  0.1	0.75
Cc1cc(=O)n2[nH]cc(-c3ccccc3)c2n1
  27.5	-1
CC(C)c1nnc(NC(=O)Cc2ccccc2)s1
  0.225	-0.55
COC(=O)C1=C(C)NC2=C(C(=O)CC(C)(C)C2)C1c1ccc(OCc2ccc(Cl)cc2)c(OC)c1 (stereo not given)
  2.36	/
CCCOc1ccc(C(=O)O)cc1
  0.48	-0.15
O=C(CNC(=O)c1ccc(Cl)cc1)c1ccc(Cl)cc1
  98.1	0.4
O=C(Cn1cnc2c(cnn2-c2ccccc2)c1=O)N1CCCc2ccccc21
  /	-0.4
COc1ccc(NC(=O)C(C)n2sc3ccccc3c2=O)c(OC)c1 (stereo not given)
  0	-0.15
O=C(Cn1c(=O)c2ccccc2n2nncc12)Nc1ccccc1
  1.03	-0.6
CCOc1ccc(S(=O)(=O)NCCC(=O)NC2=NCCS2)cc1
  /	0.3
CCC1(C(=O)c2ccccc2)C2c3cc(Br)ccc3OC(=O)C21C(=O)c1ccco1 (stereo not given)
  0.405	-0.05
CC(=O)Nc1cnn(-c2ccccc2)c(=O)c1Cl
  -0.02	-0.1
COc1cc(S(=O)(=O)n2cnc3cc(C)c(C)cc32)c(C)cc1C
  0.12	1
CCOC(=O)Cc1nnc(NC(=O)C(CC)Sc2nnc3c4ccccc4n(C)c3n2)s1 (stereo not given)
  -0.36	-0.4
CC1C/C(=C/c2cccnc2)C(=O)/C(=C/c2cccnc2)C1 (stereo not given)
  /	-0.85
O=C(CSC(=S)N1CCSCC1)c1ccc(Cl)cc1
  0.84	0.6
CSc1ccc(/C=N/OCc2ncc(-c3ccccc3)o2)cc1
  /	0.25
O=C(Nc1cc(C(F)(F)F)cc(C(F)(F)F)c1)C(c1ccccc1)C1CCCC1 (stereo not given)
  0.305	/
CNC(=S)N(Cc1cc2cc(OC)ccc2[nH]c1=O)CC1CCCO1 (stereo not given)
  /	1.65
Oc1ccccc1Oc1c(F)c(F)nc(F)c1Cl
  0.235	-0.65
O=C(Nc1cccc(Cl)c1)Nc1cccc(Cl)c1
  0.325	/
Nc1nc(CSc2nnc3c(n2)[nH]c2ccccc23)nc(N2CCOCC2)n1
  0.035	/

Entries from the list above containing a CF3 group:
The line under a structure holds: CapD inh	AID504770
N#C/C(N)=C(\C#N)N=Cc1ccc(C(F)(F)F)cc1
  -2.22	-0.45
CCOC(=O)c1cc(NC(=O)c2ccccc2)c(=O)oc1C(F)(F)F
  0.585	0.2
O=C(CNC(=O)c1ccc(C(F)(F)F)cc1)NC1CC1
  /	-0.2
COC(=O)c1ccc(NC(=O)c2cccc(C(F)(F)F)c2)cc1OC
  0.005	/
C/C(=N\NC(=O)CNc1cccc(C(F)(F)F)c1)C1CC1
  /	0.95
N#Cc1ccc(OCC(F)(F)F)c(C#N)c1OCC(F)(F)F
  1.19	-0.35
O=C(Nc1cc(C(F)(F)F)cc(C(F)(F)F)c1)C(c1ccccc1)C1CCCC1 (stereo not given)
  0.305	/

Sorted by SMILES length (rising): part of the list above.
The line under a structure holds: CapD inh	AID504770
O=C(CSC(=S)N1CCSCC1)c1ccc(Cl)cc1
  0.84	0.6
COc1cc(S(=O)(=O)n2cnc3cc(C)c(C)cc32)c(C)cc1C
  0.12	1
CCOC(=O)Cc1nnc(NC(=O)C(CC)Sc2nnc3c4ccccc4n(C)c3n2)s1 (stereo not given)
  -0.36	-0.4
